NPYLR7 agonist: mosquito NPYLR7 agonism; activation, % at 10 µM; actives 0.15% (n = 270,000); HEK293T NPYLR7/Galpha15, GCaMP6s calcium fluorescence; in the data active = activation above about 40%;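 also: 0% = vehicle and 100% = reference agonist at the receptor; some compounds past the cut are filed as inactive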
NPYLR7 agonist max-min: also measured in NPYLR7 agonist; calls as there; activation, %; measured here: Max-Min RFU normalised activation; some inactives read as strong as hits;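 span of the calcium signal over five minutes; 0% = vehicle and 100% = native peptide agonist; compound fluorescence can raise it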
* hit, by the source's call; & = joins results of further samples.

(1) COc1ccc(C(CC(=O)NCCN2CCOCC2)c2cn(C)c3ccccc23)cc1OC (stereo not drawn)
(2) COCCn1c(=O)c2c(nc3n2CCN3c2ccc(OC)cc2)n(C)c1=O
(3) CC(C)C(NC(=O)c1cc(COc2ccccc2)[nH]n1)c1nccn1C (stereo not drawn)
(4) Cc1ccc(/C=C/C2=NC(=C\c3ccc(C)o3)/C(=O)O2)cc1
(5) COc1ccc(-n2c(-c3ccccc3)cc(C(=O)N3CCN(C(=O)C(C)(C)CCl)CC3)c2C)cc1OC
(6) O=C(NCc1cccc(C(=O)N2CCCC2)c1)c1ccc(F)cc1Cl
(7) O=C(c1ccco1)N(Cc1nccn1Cc1ccccc1Cl)C1CC1
(8) COc1ccc(OC)c(NC(=O)COC(=O)C(NC(=O)c2ccco2)C(C)C)c1 (stereo not drawn)

Compound | 1 | 2 | 3 | 4 | 5 | 6 | 7 | 8
NPYLR7 agonist | 3 | 1 | 3 | -1 | -10 | -1 | 17 | -6
NPYLR7 agonist max-min | 14 | 8 | 0 | -5 | -15 | -2 | 17 | -10

(9) CCN=C(NCC)SC
(10) Cc1ccc2nc(-c3ccccc3C)c(NC(C)(C)CC(C)(C)C)n2c1
(11) Cn1cc(/C=C/C(=O)N2CCC3(CCCN(Cc4ccccc4F)C3)C2)cn1 (stereo not drawn)
(12) Cc1cccc(Cc2nnc(CCC(=O)N3CCC(C(O)c4cccs4)CC3)o2)c1 (stereo not drawn)
(13) Cc1ccc2nc(CNC3CCc4c(c(C(=O)O)nn4CC(C)C)C3)cn2c1 (stereo not drawn)
(14) Cc1cccc(C(=O)N2CCSC23CCN(C(=O)Nc2ccccc2Br)CC3)c1
(15) COC(=O)c1sc(N)c(C(=O)OC)c1Cn1cc(C(F)(F)F)cc(Cl)c1=O
(16) CSc1ncc(CNCCc2cccc(Cl)c2)c(N2CCN(C)CC2)n1

Compound | 9 | 10 | 11 | 12 | 13 | 14 | 15 | 16
NPYLR7 agonist | 2 | -9 | 14 | 4&-1 | 18 | -4 | -5 | 12
NPYLR7 agonist max-min | 0 | -3 | 9 | 3&-4 | 3 | 7 | -7 | 19

Reprinted at random: two compounds from above
(10) Cc1ccc2nc(-c3ccccc3C)c(NC(C)(C)CC(C)(C)C)n2c1
(9) CCN=C(NCC)SC

Compound | 10 | 9
NPYLR7 agonist | -9 | 2
NPYLR7 agonist max-min | -3 | 0

Further compounds
(17) CCOC(=O)c1c(C)n(C)c2ccc(OC(C)=O)cc12
(18) CCOc1ccc(/C=C(/C#N)c2nc(N)nc(Nc3ccccc3)n2)cc1
(19) CC1CC(C)CN(Cc2csc(NC(=O)c3cc(F)cc(F)c3)n2)C1 (stereo not drawn)
(20) CC1CCCN(C(=O)Cn2cnc3c(cnn3C)c2=O)C1 (stereo not drawn)
(21) CN(C)CCCNC(=O)Cn1cnc2c1c(=O)n(C)c(=O)n2C
(22) CC(C)c1nc(C2Cc3ccccc3O2)n(-c2ccccn2)n1 (stereo not drawn)
(23) C=CCN1CC(O)CN(C(=O)c2cccs2)CC1=O (stereo not drawn)
(24) CC12CC(c3ccccc3O1)C(S(=O)(=O)c1ccc(Cl)cc1)C(=O)N2 (stereo not drawn)

Compound | 17 | 18 | 19 | 20 | 21 | 22 | 23 | 24
NPYLR7 agonist | 0 | -3 | -5 | -1 | 5 | 8 | 2 | 13
NPYLR7 agonist max-min | 5 | 0 | -4 | 3 | 0 | -7 | 13 | 12

(25) COc1ccc(C(=O)OCCN=C2NS(=O)(=O)c3ccccc32)cc1OC
(26) O=C(Nc1ccc(F)c(F)c1)c1cn(CC2CCCO2)cc2c(=O)n(-c3ccccc3)nc1-2 (stereo not drawn)
(27) Cc1ccc(S(=O)(=O)Nc2ccc(-c3ccc(N4CCN(C)CC4)nn3)cc2)cc1C
(28) CCC(CC)NC(=O)CSc1nnc(NCc2ccc(OC)cc2)s1
(29) CC(C)(C)c1cc(N2CCN(C/C=C/c3ccccc3)CC2)nc(SCc2ccc(C(=O)O)cc2)n1
(30) CCOC(=O)Cn1c(=O)c2c(nc3n(C(C)CC)c(C)cn23)n(C)c1=O (stereo not drawn)
(31) CCCn1nc(C(=O)NC2=NCCS2)c2ccccc2c1=O
(32) Cc1cc(N2CCN(c3ccccc3F)CC2)nc(SCc2ccc(C(=O)O)cc2)n1

Compound | 25 | 26 | 27 | 28 | 29 | 30 | 31 | 32
NPYLR7 agonist | 4 | 13 | 0 | -2 | 10 | 4 | -8 | 8
NPYLR7 agonist max-min | 4 | 10 | -2 | 5 | 14 | 3 | -7 | 16

(33) Cc1ccc(-n2c(C)cn3c4c(=O)n(CCN5CCOCC5)c(=O)n(C)c4nc23)cc1
(34) CC(=O)COC(=O)c1ccc(N2C(=O)c3cccc(Oc4ccc(Cl)cc4)c3C2=O)cc1
(35) Cc1ccc(-n2ncc(C(=O)N3CCC(C)CC(C)(C)C3)c2N)c(C)c1 (stereo not drawn)
(36) C#CCN1C[C@H]2COc3ccccc3[C@H]2N(C(=O)c2ccc(F)cc2)CCC1=O
(37) CNC(=O)NC(=O)C(C)OC(=O)COc1cc(C)cc(C)c1 (stereo not drawn)
(38) CSc1nnc2c(n1)OC(c1ccc3ccccc3c1)Nc1ccccc1-2 (stereo not drawn)
(39) Cc1cc(C)cc(N2CCC(N3CCCC(CCC(=O)NC4CC4)C3)CC2)c1 (stereo not drawn)
(40) CCc1noc(C)c1C(=O)N1CCC(CCC(=O)NCc2cccnc2)CC1

Compound | 33 | 34 | 35 | 36 | 37 | 38 | 39 | 40
NPYLR7 agonist | 12 | 5 | 0 | -4 | 16 | -4 | 6 | 16
NPYLR7 agonist max-min | 3 | 9 | 10 | 3 | 7 | -6 | 2 | 8

Rewritten as labelled records: 4 of the compounds above.
36. C#CCN1C[C@H]2COc3ccccc3[C@H]2N(C(=O)c2ccc(F)cc2)CCC1=O
- NPYLR7 agonist: -4
- NPYLR7 agonist max-min: 3

38. CSc1nnc2c(n1)OC(c1ccc3ccccc3c1)Nc1ccccc1-2 (stereo not drawn)
- NPYLR7 agonist: -4
- NPYLR7 agonist max-min: -6

33. Cc1ccc(-n2c(C)cn3c4c(=O)n(CCN5CCOCC5)c(=O)n(C)c4nc23)cc1
- NPYLR7 agonist: 12
- NPYLR7 agonist max-min: 3

39. Cc1cc(C)cc(N2CCC(N3CCCC(CCC(=O)NC4CC4)C3)CC2)c1 (stereo not drawn)
- NPYLR7 agonist: 6
- NPYLR7 agonist max-min: 2

(list continues)
(41) COc1ccc(CNC(=O)c2ccc3nc(C)c(N(C)C(=O)CCc4ccccc4)n3c2)cc1
(42) CC1(Cc2ccc(F)c(Cl)c2)C(=O)Nc2c(Cl)cccc21 (stereo not drawn)
(43) CC1N(C)c2ccc(C=Cc3cc[n+](C)cc3)cc2C1(C)C (stereo not drawn)
(44) Cc1ccccc1-c1ccc(CN2CCC(N)(C(=O)O)C2)cc1 (stereo not drawn)
(45) CC1(C(=O)Nc2cccc3c2CCCC3)CCN1C(=O)CC(c1ccccc1)c1ccccc1 (stereo not drawn)
(46) CC(C)c1ccc(S(=O)(=O)NCC(c2ccsc2)N(C)C)cc1 (stereo not drawn)
(47) Cc1ccc(-c2nc(N3CCN(C(=O)Cc4ccc(F)cc4)CC3)c3ccccc3n2)cc1
(48) Cc1noc(C)c1COc1ccccc1C(=O)NC1CCC(C)CC1 (stereo not drawn)

Compound | 41 | 42 | 43 | 44 | 45 | 46 | 47 | 48
NPYLR7 agonist | 22 | 5 | 67* | -2 | 0 | 8 | 9 | 1
NPYLR7 agonist max-min | 19 | 5 | 59* | -2 | 0 | 0 | 21 | 0

(49) CCOC(=O)Cc1csc(NC(=O)COc2ccc(F)cc2)n1
(50) CCCCn1c(CN(C)CC2Cc3ccccc3CN2C)cnc1S(=O)(=O)CC (stereo not drawn)
(51) CCOc1nn(CC)cc1C(=O)NCCCc1ccccc1
(52) C=CCn1c(=NC(=O)CCS(=O)(=O)c2ccc(OC)cc2)sc2c(OC)ccc(OC)c21
(53) COCCn1c(=O)c2c(nc3n(Cc4ccco4)c(C)c(C)n23)n(C)c1=O
(54) Cn1c(=O)c(-c2cccc(C(F)(F)F)c2)c(-n2cnnc2)c2ccccc21
(55) CC(C)(C)c1cc(NC(=O)C2(C)CCN2C(=O)C2(c3ccccc3)CC2)no1 (stereo not drawn)
(56) NS(=O)(=O)CC1CCCN1CCSc1ccccc1 (stereo not drawn)

Compound | 49 | 50 | 51 | 52 | 53 | 54 | 55 | 56
NPYLR7 agonist | -9 | 2 | 0 | 0 | 4 | 3 | 9 | 8
NPYLR7 agonist max-min | -13 | -2 | 2 | -2 | 0 | 8 | 15 | 5

(57) Cc1ccc(NC(=O)C2CCCC2)c(-n2cnnc2)c1
(58) CCc1nc2cc(-c3c(OC)cccc3OC)ccc2o1
(59) CCc1nc(SCC(=O)c2ccc(F)cc2)n[nH]1
(60) CN(Cc1ccccc1)c1nc2c(c(Oc3cccc(F)c3)n1)CNCC2
(61) COC(=O)c1c(C)oc2c1cc(NS(=O)(=O)c1ccc(Cl)c([N+](=O)[O-])c1)c1ccccc12
(62) O=C(Nc1nccs1)c1cccc2ccccc12
(63) FCCCN1CCc2onc(-c3ccc(-c4ccccc4)cc3)c2C1
(64) CSc1nsc(SCc2ccc(C(=O)N3C4CCC3CC(Oc3ccc(F)cc3F)C4)cc2)n1 (stereo not drawn)

Compound | 57 | 58 | 59 | 60 | 61 | 62 | 63 | 64
NPYLR7 agonist | -8 | 22 | 8 | 21 | -8 | 8 | 24 | -11
NPYLR7 agonist max-min | -7 | 11 | 1 | 9 | -10 | 2 | 13 | -12

(65) COc1cccc(C(=O)N2CCC3(CC2)SCCN3C(=O)c2ccc(C(F)(F)F)cc2)c1
(66) O=C(O)C1CSC(c2cccc(I)c2)N1 (stereo not drawn)
(67) O=C(CCc1cn2ccccc2n1)N1CCN(CCn2cncn2)CC1
(68) Cc1cc2c(c(=O)o1)C(c1ccc(C(C)C)cc1)C(C#N)C(=N)O2 (stereo not drawn)
(69) CC(c1ccc(F)cc1)N(C)Cc1nnc(-c2cccs2)o1 (stereo not drawn)
(70) CSc1ccccc1CN1CCCC(O)(CO)CC1 (stereo not drawn)
(71) COc1ccc(CC2CCN(C(=O)c3cc(F)cc(F)c3)CC2)cc1
(72) O=C(NCc1cccc(O)c1)NC1(c2ccc(Br)cc2)CC1

Compound | 65 | 66 | 67 | 68 | 69 | 70 | 71 | 72
NPYLR7 agonist | -4 | 6 | -1 | -18 | 4 | 5 | 1 | 10
NPYLR7 agonist max-min | -4 | 3 | -5 | -20 | 2 | 3 | 15 | 8

Looked up above.
For NPYLR7 agonist, compound 72 is entered as 10
For NPYLR7 agonist, compound 65 is entered as -4
For NPYLR7 agonist max-min, compound 68 is entered as -20
For NPYLR7 agonist, compound 69 is entered as 4
For NPYLR7 agonist max-min, compound 67 is entered as -5
For NPYLR7 agonist, compound 66 is entered as 6

Following part
(73) N=C(N)N1CCN(C(=O)c2cccs2)CC1
(74) CCc1ccc(S(=O)(=O)NCC2CCN(CCOC)CC2)s1
(75) CC(C)(NCCCOc1ccc(C#N)cc1)c1nccs1
(76) CCN(CC)c1ccc2cc(C(N)=O)c(=NCc3ccccc3)oc2c1
(77) O=C(CCc1ccccc1)N1CCCC(OCc2cccc(F)c2F)C1 (stereo not drawn)
(78) CCn1nc(C(=O)N2CCNCC2C(=O)NC2CC2)cc1C (stereo not drawn)
(79) Cc1ccccc1NC(=O)C(C)N1CCN(Cc2cccc(C(F)(F)F)c2)CC1 (stereo not drawn)
(80) O=C1CCCC2=Nc3[nH]c(=O)[nH]c(=O)c3C(c3cccs3)C12 (stereo not drawn)

Compound | 73 | 74 | 75 | 76 | 77 | 78 | 79 | 80
NPYLR7 agonist | 6 | -8 | -2 | -3 | -3 | 16 | 10 | 6
NPYLR7 agonist max-min | 12 | -14 | -3 | -7 | 0 | 12 | 4 | -4

(81) Cc1ccc(-n2ncc3c(=O)n(NC(=O)c4ccc(Cl)c([N+](=O)[O-])c4)cnc32)cc1C
(82) CCOc1ccc(CCC(=O)NCC(C)CC2(C)OCCO2)cc1 (stereo not drawn)
(83) CC(C)c1nn(CC(=O)NC2CCCCC2)c(=O)c2c1cnn2-c1ccc(F)cc1
(84) Clc1ccc(OCCSc2nnc3ccccn23)c(Cl)c1
(85) CCOC1CCCN(C(=O)c2ccc(OC)cc2)C1 (stereo not drawn)
(86) CC(C)C(NC(=O)c1cccs1)C(=O)NC1=NCCS1 (stereo not drawn)
(87) CC(=O)NC(CC(=O)N(C)C(C)c1nc2ccccc2s1)c1cccs1 (stereo not drawn)
(88) COc1ccc(NC(=O)Nc2ccc(-c3ccc(N4CCCC4)nn3)cc2)cc1OC

Compound | 81 | 82 | 83 | 84 | 85 | 86 | 87 | 88
NPYLR7 agonist | 1 | 7 | 1 | 4 | 5 | 3&4 | 5 | 5
NPYLR7 agonist max-min | 0 | 3 | 1 | 2 | 9 | 6&4 | 2 | 4

(89) Cc1ccc(-[n+]2c3n(c(=O)c4ccccc42)CCCCC3)cc1
(90) COc1ccc(S(=O)(=O)Nc2ccncc2C)c(Cl)c1Cl
(91) CC(C)N(Cc1cnn(C)c1)C(=O)c1ccc(F)c(S(=O)(=O)N2CCC2)c1
(92) O=C(NCCc1cccnc1)C1CCCc2ccccc21 (stereo not drawn)

Compound | 89 | 90 | 91 | 92
NPYLR7 agonist | 22 | -3 | -1 | 0
NPYLR7 agonist max-min | 2 | -3 | 15 | -3

Screening data: PubChem, Fisher Drug Discovery Resource Center

A portion of the library (hit frequency here may not be typical).
